Screens deposited in PubChem by several laboratories.
Vif A3G – inhibitors of Vif binding to APOBEC3G peptide, primary screen, biochemical, TR-FRET, GST-Vif 1-94, biotin-A3G peptide, dose response retest (AID 1117319); 260,000 compounds, 0.57% hits; TR-FRET GST-Vif / biotin-A3G peptide binding; higher % means a stronger effect; test concentration not given here; strong numbers were not always called active; inhibition, %, or IC50 in µM where a hit was titrated;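 active = above the screen mean plus three standard deviations and confirmed in dose response; inconclusive = results disagree or hit not tested in dose response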;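 note: Vif residues 1-94 fused to GST binding biotinylated APOBEC3G peptide 110-148; 0% = full assay without inhibitor and 100% = GST in place of GST-Vif; retest series ran down from 100 µM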
UCH37 DUB inh – human UCH37 deubiquitinating enzyme inhibition; purified proteasome/UCH37, Ub-AMC cleavage fluorescence; Q9Y5K5; inhibition, % (no concentration beside the values); 330,000 compounds, 0.33% hits;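 active = mean of two replicates above 20%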;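 note: 0% = compound-free wells with enzyme and 100% = wells lacking proteasome; stock transfer was 100 nL into about 20 µL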
Target sequence (Q9Y5K5 whole entry, looked up): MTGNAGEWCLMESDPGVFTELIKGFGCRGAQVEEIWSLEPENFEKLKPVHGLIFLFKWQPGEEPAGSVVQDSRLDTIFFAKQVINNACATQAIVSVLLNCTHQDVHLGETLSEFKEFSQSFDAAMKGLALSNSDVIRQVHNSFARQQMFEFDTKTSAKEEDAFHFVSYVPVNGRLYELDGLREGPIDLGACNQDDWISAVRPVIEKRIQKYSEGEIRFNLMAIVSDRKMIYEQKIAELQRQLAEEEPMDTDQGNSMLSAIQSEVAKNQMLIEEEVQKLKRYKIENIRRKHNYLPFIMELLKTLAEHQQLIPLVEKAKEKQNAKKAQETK
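assay system = human UCH37 enzyme supplied as purified proteasome complex | amount = proteasome at 0.15 nM in the dispensed enzyme solution | schedule = 30 min compound-proteasome preincubation then 25 min substrate reaction, room temperature | measured by = fluorescence, ex 355 nm, em 460 nm | benchmarks = no-proteasome wells (full inhibition) and compound-free wells (no inhibition)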
LANA-H2A inh – blocks KSHV LANA binding to histone H2A/H2B; Q9QR71; cell-free LANA-H2A/H2B peptide, fluorescence polarization; inhibition, % (concentration not given with the values); 320,000 compounds, 0.6% hits; in the data active = inhibition mostly above about 10%, no sharp cut-off; inactive = mostly below about 6.7%;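 note: stock transfer was 7.5 nL into about 10 µL; 0% = median of vehicle wells and 100% = median of positive control wells; one replicate is shown; the record names a cut of 25% in any replicate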
Beta2AR agonist – agonists of human beta-2 adrenergic receptor inducing internalization; P07550; Am2.2-beta2AR cells, FAP receptor internalization, flow cytometry; reference of the scale not given here; response, % (concentration not given with the values); 340,000 compounds, 0.43% hits; AID 504454;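 active = response above a set limit, near 3 SD of response in nonfluorescent compounds, cut at about 42% in these data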;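 note: stock transfer was 100 nL into about 11 µL; a reference agonist was the positive control; negative values mostly stem from fluorescent compounds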
E coli growth – E. coli growth inhibition | Escherichia coli growth, OD600, 23 h; active compounds read low | OD600 absorbance (test concentration not listed) | 330,000 compounds, 0.21% hits;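 active = OD600 absorbance below the run mean of sample wells minus 3.6 SD, in any replicate, cut at about 0.56 in these data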;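 note: stock transfer was 300 nL into about 60 µL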
HNF4A DNA FP – change in binding of human HNF4 alpha to DNA. HNF4a-FITC DNA binding, fluorescence polarization, 1 h. 360,000 compounds, 0.3% hits. AID 1224865. activity change, % at 10 µM. P41235; in the data active = activity change above about 30%, passing the limit was not always enough;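 note: controls were the assay level and a saturating level of protein; the project sought stronger binding though the title names inhibitors; some compounds called inactive have numbers as strong as hits; positive values seem to mean higher polarization but the record does not say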
Target sequence (P41235 whole entry, looked up): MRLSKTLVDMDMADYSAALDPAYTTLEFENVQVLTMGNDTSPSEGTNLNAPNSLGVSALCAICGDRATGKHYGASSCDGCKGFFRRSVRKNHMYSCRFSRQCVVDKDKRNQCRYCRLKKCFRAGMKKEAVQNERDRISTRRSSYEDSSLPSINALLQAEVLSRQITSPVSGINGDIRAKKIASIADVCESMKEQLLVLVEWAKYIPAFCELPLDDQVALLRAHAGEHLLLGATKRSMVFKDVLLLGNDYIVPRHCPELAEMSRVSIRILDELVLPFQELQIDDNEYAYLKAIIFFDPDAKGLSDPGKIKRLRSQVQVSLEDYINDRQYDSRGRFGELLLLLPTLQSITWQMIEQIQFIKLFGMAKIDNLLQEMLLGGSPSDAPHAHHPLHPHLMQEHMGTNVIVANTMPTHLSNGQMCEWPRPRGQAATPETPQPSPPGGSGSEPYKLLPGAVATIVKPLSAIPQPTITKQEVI
Bfl-1 A1 inh – inhibitors of the anti-apoptotic protein A1, read as caspase activation; MEF A1-2A-BIM cells, Caspase-Glo 3/7 luminescence, 3 h; percent of clofoctol response, vehicle zero; caspase activation, % (no concentration beside the values); 330,000 compounds, 0.066% hits; AID 2462;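 active = over half of replicate activation scores above 10%, or exactly half above 10 with the replicate mean above 10; inconclusive = replicate mean below 10 yet half the replicates above 10; inactive = over half of replicates below 10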;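 note: wells of about 30 µL received 50 nL stock; many hits fall short of the cut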
Numbers without * were called inactive; ? = inconclusive; . = no result given.

SMILES	Vif A3G	UCH37 DUB inh	LANA-H2A inh	Beta2AR agonist	E coli growth	HNF4A DNA FP	Bfl-1 A1 inh
O=C(Cn1c(=O)cnc2ccccc21)NCC(=O)Nc1ccc(F)c(F)c1	8%	3.2	0.2	-1	0.67	-2.7	0.6
CCOC(=O)c1cc(-c2ccccc2)sc1NC(=O)C(C)(C)C	?	-15	-1.1	-9	0.71	-2.7	?
COc1ccccc1NC(=O)CSc1nc(=O)n(CCN2CCOCC2)c2c1CCC2	-5%	2.8	-3.0	-5	0.65	1.5	-0.2
Cc1ccc(S(=O)(=O)N2CCC[C@H]2C(=O)NC2CCCCC2)cc1	1%	3.4	.	-6	0.67	-2.3	.
O=C(NCCCN1CCOCC1)C(=O)NCC1CCCO1 (stereo unspecified)	.	1.0	7.5	-5	0.68	0.5	1.1
Cc1c(C(=O)NCC2COc3ccccc3O2)oc2ccc(S(=O)(=O)N3CC(C)CC(C)C3)cc12 (stereo unspecified)	22%	-0.5	1.5	6	0.69	-3.2	-0.4
CNS(=O)(=O)c1cc(-c2nnc(Nc3ccc(CC(N)=O)cc3)c3ccccc23)ccc1C	.	4.6	5.0	2	0.68	0.9	-0.2
Cc1ccc(S(=O)(=O)N2CCC(C(=O)OCC(=O)N(C)CC(=O)Nc3ccc(F)cc3)CC2)cc1C	-1%	0.2	3.1	3	0.59	-4.5	-0.2
O=C(Nc1ccccc1N1CCCC1)c1ccc2ccccc2c1	.	3.1	6.5	-8	0.68	3.8	-0.1
COc1ccccc1CCC(=O)N(Cc1ccccc1)c1c(N)n(Cc2ccccc2)c(=O)[nH]c1=O	.	4.0	-4.0	5	0.7	-0.6	0.7
NC(=O)CC(NC(=O)c1ccc(Br)cc1)c1ccc(NCc2ccc(F)cc2)c([N+](=O)[O-])c1 (stereo unspecified)	.	.	-4.4	2	.	18	0.1
O=C(NNC(=O)C1CCCCC1)c1cnccn1	23%	3.2	1.0	0	0.67	2.9	0.0
COP(=O)(/C=C/c1ccccc1)C(O)c1ccc(F)cc1 (stereo unspecified)	0%	1.7	-7.1	3	.	0.5	0.9
Cc1ccc(N2C(N)=C(C#N)C(c3cccnc3)C3=C2CCCC3=O)cc1 (stereo unspecified)	?	1.4	6.4	-6	0.74	-0.3	0.4
Cc1ccccc1N(CC(=O)NCCSc1ccccn1)S(=O)(=O)c1ccccc1	0%	5.2	0.6	-1	0.72	4.1	-1.3
CCCOc1ccc(/C(CC)=N/NC(=O)C2(C)CC2(Br)Br)cc1 (stereo unspecified)	.	.	3.7	2	.	-3.1	1.0
CCOCC(O)CNC(=O)c1ccc2nc(Cc3ccc(OC)c(OC)c3)oc2c1 (stereo unspecified)	.	2.2	2.0	-5	0.7	1.5	0.4
CC1CCC(NC(=O)Cn2c(=O)[nH]c3ccsc3c2=O)CC1 (stereo unspecified)	11%	1.2	6.1	-3	0.69	2.7	-0.6
COc1ccc(OCC(=O)Nc2ccccc2OC)cc1	-9%	0.1	3.1	12	0.64	1.3	-0.7
CC1(C)CC(=O)C2=C(C1)Nc1ccccc1N1C(=O)c3ccccc3C21 (stereo unspecified)	?	9.4	4.1	-14	0.65	-2.9	0.0
CC1(C)CC(=O)CC(C)(C)N1OC(=O)c1ccncc1	1%	1.9	-1.0	8	0.73	0.3	0.7
CCc1ccc(C(=O)NNc2cc(Cl)cc(Cl)c2)cc1	.	6.1	4.4	7	0.68	-0.7	-0.3
Cc1nnc(Sc2cc(NCCO)c([N+](=O)[O-])c3nonc23)s1	?	3.7	.	-13	0.7	1.7	.
O=C(CCNC(=O)c1ccccc1)NCc1ccccc1F	1%	2.5	-0.8	1	0.71	-0.5	-0.7
S=C(Nc1ccccc1)N1N=CCC1c1ccccc1 (stereo unspecified)	29%	-1.3	1.3	-3	0.64	1.5	-0.1
O=[N+]([O-])c1ccc(N/N=C/C=C/c2ccco2)cc1	.	.	-2.9	-52	.	89*	-1.3
CNC(=S)NNC(=O)c1cn(C)nc1C	19%	2.6	-2.1	8	0.66	0.6	1.5
O=C(CSc1nnc(CN2CCCCC2)n1-c1ccccc1)c1ccc2c(c1)OCO2	69%	1.6	2.7	-1	0.7	-1.5	1.4
CCn1nc(CC(=O)Nc2ccc(-n3cnnn3)c(OC)c2)c2ccccc2c1=O	-5%	2.8	5.0	3	0.6	3.2	0.1
O=C(NCC1CCCCC1)c1cc(S(=O)(=O)N2CCCCC2)ccc1Cl	.	-2.0	1.6	-8	0.71	-0.5	1.3
Cc1cccc(NC(=S)NCC(c2cccnc2)N2CCOCC2)c1 (stereo unspecified)	.	-1.3	-4.3	-3	0.68	0.5	-0.7
CCOc1ccccc1NC(=O)CS(=O)(=O)c1cn(CC(=O)N2CCOCC2)c2ccccc12	2%	0.3	0.2	1	0.73	1.6	0.2
NC(=O)C1CCN(C(=O)COc2ccc(S(=O)(=O)NC3CCCC3)cc2)CC1	7%	2.8	1.9	11	0.64	-1.1	1.0
CCSc1nnc(NC(=O)CSc2nccn2-c2cc(C)cc(C)c2)s1	-4%	0.8	-0.6	.	0.78	.	0.1
Cc1ccc(NC(=O)CS(=O)CC(=O)NCC2CCCO2)cc1 (stereo unspecified)	-5%	3.7	-3.9	1	0.71	3.5	-0.1
c1ccc(CSc2nnc(-c3ccncc3)o2)cc1	17%	2.8	-1.0	15	0.65	-5.4	-1.5
Cc1nn(C)c(C)c1NC(=O)c1ccccc1NC(=O)Nc1ccccc1	-1%	6.9	-1.5	3	0.63	1.8	0.4
COc1ccc2c3n(nc2c1)CCN=C3c1ccc(Cl)cc1	.	2.5	-0.3	-12	0.69	-0.2	-0.9
COc1ccc(Br)cc1CN(C)C(=O)c1cnc(C)cn1	-2%	3.1	-11	-3	0.64	6.6	0.0
Cc1cc(C(=O)NCCc2ccc(Cl)cc2)c2ccccc2n1	.	0.2	1.9	6	0.65	1.1	0.1
CC(C)C(=O)Nc1ccc(O)c(-c2csc(N)n2)c1	2%	2.0	-2.2	-10	0.66	5.5	0.6
O=C(NN(Cc1ccccc1)Cc1ccccc1)c1ccccc1	-2%	2.1	.	-1	0.67	2.1	.
COc1ccc(NC(=O)c2cc(-c3ccco3)on2)c(OC)c1	.	-41	0.7	2	0.71	9.5	0.1
O=C(NCCc1ccccc1)c1c[nH]c2c(F)cccc2c1=O	-4%	2.9	-3.8	-10	0.63	-2.0	0.0
Cc1csc(=O)n1CC(=O)Nc1ccc(Cl)cc1F	-4%	-0.3	-3.7	-1	0.69	0.8	1.0

4 entries out of the list, arranged by heavy-atom count, ascending.
SMILES	Vif A3G	UCH37 DUB inh	LANA-H2A inh	Beta2AR agonist	E coli growth	HNF4A DNA FP	Bfl-1 A1 inh
O=C(NNC(=O)C1CCCCC1)c1cnccn1	23%	3.2	1.0	0	0.67	2.9	0.0
S=C(Nc1ccccc1)N1N=CCC1c1ccccc1 (stereo unspecified)	29%	-1.3	1.3	-3	0.64	1.5	-0.1
COc1ccc(OCC(=O)Nc2ccccc2OC)cc1	-9%	0.1	3.1	12	0.64	1.3	-0.7
COc1ccc(NC(=O)c2cc(-c3ccco3)on2)c(OC)c1	.	-41	0.7	2	0.71	9.5	0.1

(next part)
SMILES	Vif A3G	UCH37 DUB inh	LANA-H2A inh	Beta2AR agonist	E coli growth	HNF4A DNA FP	Bfl-1 A1 inh
O=C(O)CSCC(=O)N1CCN(Cc2ccc3c(c2)OCO3)CC1	-1%	1.4	2.6	3	0.7	-2.8	2.0
Cc1c(Cl)cccc1NC(=O)CCS(=O)(=O)c1cccc2nonc12	.	1.1	-0.9	39	0.71	0.5	1.5
COc1ccc(NC(=O)Cn2cnc3c(nnn3-c3ccc(C)cc3)c2=O)cc1	2%	3.2	0.9	.	0.72	.	-0.1
C#Cc1ccc([C@@H]2C=C(C(=O)N3CCN(Cc4ccccc4)CC3)O[C@H](OCCCCO)C2)cc1	5%	-4.5	3.5	10	.	1.4	-0.3
Cc1oc(-c2cccc(Cl)c2)nc1CN(C)C1CCOC1 (stereo unspecified)	-4%	-0.2	-5.8	22	0.7	-1.8	-0.6
COc1ccc2c(c1)OC[C@H]1[C@H]2N2C(=O)CN(CCc3c[nH]c4ccccc34)C(=O)[C@@]2(C)[C@H]1c1ccccc1	.	3.8	-2.6	1	.	-8.7	-1.3
Cc1cc(C)cc(NC(=O)COC(=O)COc2ccc(N(C)S(=O)(=O)c3cccs3)cc2)c1	4%	-2.0	0.8	2	0.69	0.5	0.3
COC(=O)c1cccc(NC(=O)NC2CCCN2S(=O)(=O)c2ccc(Cl)cc2)c1 (stereo unspecified)	72%	-3.2	.	7	0.75	-2.0	.
CC(C)[C@H]1C=C(C(=O)O)O[C@@H](OCCCCO)C1	12%	5.1	-2.7	6	.	1.7	-1.1
c1ccc(CCNCC2COc3ccccc3O2)cc1 (stereo unspecified)	1%	1.3	-0.9	-8	0.65	-0.1	0.3
O=C(Nc1nc2ccccc2s1)C1CC(=O)N(c2ccccc2)C1 (stereo unspecified)	-12%	4.4	5.9	-9	0.67	1.4	0.2
COc1ccc(NC(C)=O)cc1S(=O)(=O)NC(Cc1ccccc1)C(=O)NC(C)c1ccccn1 (stereo unspecified)	.	3.0	.	-8	0.7	0.1	.
c1ccc(-c2cncnc2)cc1	.	-1.0	4.1	1	.	1.4	-1.3
O=[N+]([O-])c1cccc(S(=O)(=O)NCCc2cn3ccccc3n2)c1	25%	4.1	0.9	-17	0.72	0.6	-0.6
C=CCN1C(=O)c2ccc(C(=O)N(C)CC(=O)Nc3ccc(Br)cc3C)cc2C1=O	4%	1.1	.	-3	0.64	0.6	2.3
Cc1ccc(S(=O)(=O)Nc2nc3ccccc3nc2N2CCc3ccccc3C2)cc1	-12%	-41	-4.2	-1	0.74	4.7	-0.1
O=C(O)c1cc2ncc(-c3[nH]ncc3[N+](=O)[O-])cn2n1	19%	5.9	2.1	2	0.7	-1.8	-0.4
CCOC(=O)C1(CC2CCCCO2)CCN(S(=O)(=O)c2ccsc2)CC1 (stereo unspecified)	6%	-0.2	-1.8	10	0.66	-3.7	0.2
Cc1ccc(C)c(NC(=O)CSc2nnc(C)c(=O)n2N)c1	2%	1.4	-4.4	-7	0.61	1.3	1.4
COc1ccccc1-n1ccnc1SCC(=O)NC(C)(C)C	-7%	5.5	2.3	1	0.71	2.6	0.3
Cc1cc(OCC(=O)OCC(=O)N(C)Cc2ccccc2C)ccc1Cl	-15%	1.8	-1.7	-3	0.68	3.0	-0.4
CCOC(=O)c1cccc(NC(=O)Cn2cc3c(n2)CCC(C)C3)c1 (stereo unspecified)	-1%	2.1	-9.4	-5	0.71	-2.9	-1.0
CC(=O)N1CCc2ccc(S(=O)(=O)N3CCN(C)CC3)cc21	-7%	1.2	-1.4	-2	0.68	-0.5	-1.0
N#Cc1nc(COc2ccccc2F)oc1NCCCn1ccnc1	-2%	2.7	-1.0	-12	0.65	-1.0	0.1
C#CCNC(=O)C1=C[C@@H](c2coc3ccccc3c2=O)C[C@@H](OCc2ccc(CO)cc2)O1	.	1.8	3.4	-13	.	2.8	-0.6
COCCN(C(=O)COC(=O)c1cccc2ccccc12)c1c(N)n(Cc2ccccc2)c(=O)[nH]c1=O	.	-0.6	1.5	-2	0.67	4.5	-0.4
COc1cccc(CN2CCN(Cc3cc(OC)c(OC)cc3[N+](=O)[O-])CC2)c1	-5%	4.3	-2.1	-1	0.68	-1.0	1.2
Cn1cc(CC(=O)NCCCN2CCOCC2)c2ccccc21	.	0.1	-0.2	6	0.69	-3.2	0.2
